Screens (PubChem BioAssay)
gsp agonist – gsp mutant agonism; Potency, µM (highest dose often 76.9 µM), without a hit: top-dose activation (cAMP increase), actives largely listed as activators; gsp mutant cells, cAMP HTRF, 30 min; control for the full effect not named in the record; 340,000 tested, 0.13% active; active = well fitted activation curve with a large enough effect; inconclusive = small, poorly fitted or top-dose-only effect, or another doubt; inactive = no such curve, though single readings can be large or run the other way; cell line not stated here;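 further: phosphodiesterase inhibitor Ro 20-1724 added with compounds to block cAMP breakdown; potency means the concentration at half of the fitted maximal effect; nearly all actives have a fitted effect of over 60% in size; about a fifth of the inactives were tested at one dose only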
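Cells in DMEM/10% FBS with G418 were pretreated with compounds in DMSO plus […] (300 uM stock) for 30 min at 37C. cAMP was measured by HTRF (cAMP-d2 plus anti-cAMP antibody-K) after 30 min at room temperature.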
D2 potentiator – human D2 receptor positive allosteric modulation. P14416. DiscoveRx D2 beta-arrestin cells, luminescence, 90 min; 100% = 57 uM dopamine signal. potentiation, % (test concentration not listed). 360,000 tested, 0.23% active. AID 624464; active = potentiation of 50% or more; inconclusive = 30% to 50%; inactive = 30% or less;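 further: compound concentration not given in the record; tested on top of an EC20 dose of dopamine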
Target sequence (P14416 whole entry, looked up): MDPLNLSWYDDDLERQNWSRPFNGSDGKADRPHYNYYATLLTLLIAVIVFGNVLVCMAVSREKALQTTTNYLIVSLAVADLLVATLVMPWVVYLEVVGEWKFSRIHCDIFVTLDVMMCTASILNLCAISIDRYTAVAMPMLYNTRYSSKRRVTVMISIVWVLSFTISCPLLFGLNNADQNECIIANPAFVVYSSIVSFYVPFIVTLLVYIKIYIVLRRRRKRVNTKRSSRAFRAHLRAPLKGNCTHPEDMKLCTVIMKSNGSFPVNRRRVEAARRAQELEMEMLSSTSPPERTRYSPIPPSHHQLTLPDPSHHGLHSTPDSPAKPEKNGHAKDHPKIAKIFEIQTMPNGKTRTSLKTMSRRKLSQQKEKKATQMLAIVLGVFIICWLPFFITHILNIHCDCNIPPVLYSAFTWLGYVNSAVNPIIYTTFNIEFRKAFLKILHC
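PathHunter D2 cells, attached overnight at 37 deg C, received compound in DMSO plus dopamine at EC20 (50 nM final) for 90 min at 37 deg C. Beta-arrestin recruitment was read as luminescence after 1 h with detection reagent at ambient temperature.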
gsp antagonist – antagonizes gsp, the McCune-Albright syndrome mutation; Potency, µM (highest dose often 76.9 µM), for inactives: top-dose activity change, negative = inhibition, hits mostly inhibitors; 340,000 tested, 0.4% active; AID 624288; gsp-mutant cells, cAMP HTRF, 30 min; control for the full effect not named in the record; active = falling curve of any shape with a large fitted effect; inconclusive = falling curve, mostly with a smaller effect; inactive = flat or rising curve; cell line not stated here;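 further: intracellular cAMP measured with PDE inhibitor Ro 20-1724 present during compound exposure; potency means the concentration at half of the fitted maximal effect; on the % scale 0 is the no-effect control and ±100 the full control effect; nearly all actives have a fitted effect of over 65% in size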
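HTRF cAMP measurement after 30 min RT detection following 30 min, 37C compound treatment alongside […] (added as 300 uM solution) in G418-selected cells seeded at 2000/well and grown 16–24 h.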
CtBP-E1A inh – CtBP/E1A binding inhibition | AlphaScreen GST-E1A/His-CtBP binding, 1536-well; active compounds read low; control for the full effect not named in the record | activity change, % (concentration not given with the values) | 340,000 tested, 0.49% active | AID 651724; in the data active means activity change below about -65%; inconclusive means about -30% to -65%; inactive means above about -30%; further: on the % scale 0 is the no-effect control and ±100 the full control effect
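In 5 uL wells, 23 nL compound meets equimolar GST-E1A and His-CtBP (5X stock 125 nM each) for 2 h, 37 °C. Beads (5X, 50 ug/mL) then 1 h, 37 °C, dark.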
D2 ag – human D2 receptor agonism in beta-arrestin assay; DiscoveRx PathHunter D2 beta-arrestin, luminescence, 90 min; 100% = 57 uM dopamine signal; activation, % (concentration not given with the values); 360,000 tested, 0.084% active; AID 624465; in the data active = activation above about 40%; inconclusive = about 15% to 40%; inactive = below about 15%; further: compound concentration not given in the record; the text of the record calls up to 30% inactive
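DiscoveRx PathHunter D2 beta-arrestin cells (2,100/well) attached overnight, then compound-stimulated 90 min at 37 C in HBSS/10 mM HEPES/0.1% Tween-20 buffer; beta-galactosidase complementation read by luminescence after 1 h at ambient temperature. Dopamine 57 uM final (EC100) as control.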
Six1-Eya2 blk – blocks human Six1 binding to Eya2. 360,000 tested, 0.56% active. activity change, % (no concentration beside the values). AlphaScreen GST-Six1/His-Eya2 binding, biochemical; active compounds read low; control for the full effect not named in the record. Q15475+O00167; in the data active = activity change below about -65%; inconclusive = about -30% to -65%; inactive = above about -30%; further: on the % scale 0 is the no-effect control and ±100 the full control effect
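Homogeneous AlphaScreen proximity assay pairing GST-Six1 with His-tagged Eya2 (added as 5X mix: 250 nM and 500 nM) in 50 mM Tris pH 8.0, 300 mM NaCl, 1 mM TCEP. Glutathione donor and nickel acceptor beads; 1 h, 37 °C, dark.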
* hit, by the source's call; ? = inconclusive; nt = no result given; [ ] = dose if it differs, or a comment.

Screens by letter: A = gsp agonist; B = D2 potentiator; C = gsp antagonist; D = CtBP-E1A inh; E = D2 ag; F = Six1-Eya2 blk
1) Cc1nc(SCn2nnc3ccccc3c2=O)nc(C)c1C
  A: 0%	B: -1	C: 20%	D: 0	E: -3.2	F: 1
2) Cc1sc2c(c1C)c(=O)n(-c1ccccc1)c1nnc(C)n21
  A: 17%	B: 13	C: 6%	D: -1	E: -1.5	F: -2
3) O=C(NC(=S)NCC1CCCO1)c1ccccc1Br (centres undefined)
  A: 23%	B: -6	C: 8%	D: 4	E: -0.2	F: 5
4) CCOc1cc(NC(=S)NCC2CCCO2)c(OCC)cc1NC(=O)c1ccc(OC)cc1 (centres undefined)
  A: 0%	B: -10	C: 7%	D: 5	E: 3.6	F: -1
5) COc1cc(Cl)c(C)cc1NC(=O)c1ccccc1NC(=O)CN1CCOCC1
  A: -5%[15.4 µM]	B: 4	C: ?	D: 3	E: -3.8	F: -2
6) COc1ccccc1N1C(=O)c2ccc(C(=O)Nc3ccc(C(=O)O)cc3)cc2C1=O
  A: -2%[15.4 µM]	B: -8	C: 4%	D: -4	E: -1.3	F: 3
7) O=C(COC(=O)/C=C/c1ccccc1)Nc1ccc2c(c1)OCCO2
  A: -24%	B: -2	C: 4%	D: -10	E: -1.3	F: 2
8) CCOc1ccccc1NC(=O)CCNS(=O)(=O)c1ccc2[nH]c(=O)oc2c1
  A: -14%	B: -9	C: 12%	D: -2	E: 0.0	F: 1
9) COCCCNC(=S)N1CCCN(c2nc3cc(C)ccc3cc2C#N)CC1
  A: -4%	B: -8	C: -19%	D: nt	E: 9.3	F: 13
10) CC(C)C[C@@H](CO)NS(=O)(=O)c1cc(Cl)ccc1F
  A: nt	B: -8	C: -4%	D: 5	E: -3.4	F: 5
11) CC(C)C(=O)Nc1cc(C(F)(F)F)ccc1-n1ccnc1
  A: -7%	B: -10	C: -8%	D: 8	E: 0.5	F: -5
12) COc1ccc(NC(=S)N2CCCN(Cc3cc(C)ccc3C)C2)cc1
  A: 4%	B: -22	C: 2%	D: -21	E: -4.9	F: 8
13) CN(C)c1ccc(/C=N/NC(=O)C(=O)/C=C2\NC3(CCCC3)Cc3ccccc32)cc1
  A: -1%	B: -20	C: -17%	D: 21	E: -4.8	F: -21
14) COc1cccc(C(=O)Nc2cc3c(cc2C(C)=O)OCCO3)c1
  A: -5%	B: 8	C: ?	D: -1	E: -1.5	F: 18
15) COc1ccc(Cc2nnc(N=Nc3c(O)[nH]c4ccc(Br)cc34)[nH]c2=O)cc1
  A: -63%[inhibitor]	B: 8	C: -15%	D: -4	E: -7.3	F: -5
16) CCCSc1nc(NCc2ccco2)c2c3c(sc2n1)COC(C)(C)C3
  A: 7%	B: -2	C: -19%	D: -11	E: 1.7	F: 0
17) CC(C)(C)n1nc2c(c1NC(=O)C1CC(=O)N(c3ccc(Cl)cc3)C1)CS(=O)(=O)C2 (centres undefined)
  A: 6%	B: 3	C: 16%	D: 12	E: -3.2	F: -1
18) O=C(/C=C/c1ccc([N+](=O)[O-])cc1)c1ccccc(=O)c1O
  A: -9%	B: -26	C: -12%	D: 10	E: -7.6	F: -2
19) CCC1SC(=NC(=O)c2ccc(Cl)c(Cl)c2)NC1=O (centres undefined)
  A: 2%	B: -4	C: 13µM*	D: 5	E: -2.8	F: 0
20) CNC(=O)COc1ncnc2scc(-c3ccc(F)cc3)c12
  A: -38%[inhibitor]	B: 11	C: -2%	D: -4	E: 6.1	F: 0
21) Cc1ccc(C(=O)c2oc3ccccc3c2NC(=O)c2cc(-c3cc(C)ccc3O)n[nH]2)cc1
  A: 0%	B: 0	C: 5%	D: -1	E: 3.6	F: 4
22) COc1ccc(-c2cc(C(F)(F)F)n3nc(C(=O)O)nc3n2)cc1
  A: ?	B: -1	C: 6%	D: ?	E: -3.7	F: ?
23) COc1ccc(C)cc1NC(=O)CNC(=O)Cn1ccc2ccccc2c1=O
  A: 21%	B: -20	C: 2%	D: -3	E: -5.0	F: 4
24) N#CC1=C(N)OC2=C(C(=O)CCC2)C1Cc1ccccc1 (centres undefined)
  A: -9%	B: -5	C: -1%	D: 3	E: -3.0	F: 2
25) Cc1cnc(NC(=O)CSc2ccccc2)s1
  A: 7%	B: 0	C: 7%	D: 3	E: 0.0	F: 1
26) COC(=O)c1ccc(C(=O)OC)c(NC(=S)N2CCOCC2)c1
  A: -2%[15.4 µM]	B: -8	C: -16%	D: -1	E: -5.1	F: 2
27) Cc1ccccc1C1C(C#N)=C2N=C(N)c3c(sc4c3CCCCC4)N2C2=C1C(=O)CCC2 (centres undefined)
  A: -17%	B: -11	C: -19%	D: ?	E: -2.6	F: ?
28) CCNC(=S)N=Nc1c(O)[nH]c2ccc([N+](=O)[O-])cc12
  A: 3%[15.4 µM]	B: -12	C: -4%	D: -87*	E: -7.6	F: -84*
29) CCN1CCN(C(=O)C(C)Sc2nc3nc(C)cc(C)n3n2)CC1 (centres undefined)
  A: ?	B: 0	C: 3%	D: -1	E: 4.3	F: -1
30) O=S(=O)(c1ccc(Cl)cc1)N1CCN(S(=O)(=O)N2CCCCCC2)CC1
  A: 1%[15.4 µM]	B: -6	C: -6%	D: 8	E: -1.6	F: 0

Laid out differently: 4 of the compounds above
cpd	Compound	gsp agonist	D2 potentiator	gsp antagonist	CtBP-E1A inh	D2 ag	Six1-Eya2 blk
27	Cc1ccccc1C1C(C#N)=C2N=C(N)c3c(sc4c3CCCCC4)N2C2=C1C(=O)CCC2 (centres undefined)	-17%	-11	-19%	?	-2.6	?
28	CCNC(=S)N=Nc1c(O)[nH]c2ccc([N+](=O)[O-])cc12	3%[15.4 µM]	-12	-4%	-87*	-7.6	-84*
29	CCN1CCN(C(=O)C(C)Sc2nc3nc(C)cc(C)n3n2)CC1 (centres undefined)	?	0	3%	-1	4.3	-1
30	O=S(=O)(c1ccc(Cl)cc1)N1CCN(S(=O)(=O)N2CCCCCC2)CC1	1%[15.4 µM]	-6	-6%	8	-1.6	0

Next section.
Screens by letter: A = gsp agonist; B = D2 potentiator; C = gsp antagonist; D = CtBP-E1A inh; E = D2 ag; F = Six1-Eya2 blk
31) COCCNc1nnc(SCC(=O)Nc2sc3c(c2C(=O)c2ccccc2)CCCC3)s1
  A: -14%	B: -14	C: ?	D: ?	E: -5.9	F: ?
32) CSc1nc(C)c(CCO)c(=O)[nH]1
  A: -2%	B: -6	C: 7%	D: -10	E: -0.5	F: 15
33) O=C(CC1S/C(=N/N=C2CCCCCC2)NC1=O)Nc1ccc(Br)cc1F (centres undefined)
  A: 5%[15.4 µM]	B: -20	C: -15%	D: -2	E: 0.3	F: 2
34) CN(C)C(=O)Oc1ccc[n+](C)c1
  A: nt	B: 22	C: 8%	D: -1	E: -3.1	F: 5
35) O=C(CCSc1nnc2scc(-c3ccccc3)n12)NCc1ccc2c(c1)OCO2
  A: 25%	B: -5	C: 0%	D: -6	E: 0.1	F: -1
36) O=C(Nc1ccc2c(c1)C(=O)N(CC1CCCO1)C2=O)c1ccc(Cl)c(Cl)c1 (centres undefined)
  A: -1%	B: 0	C: -17%	D: -3	E: -1.1	F: -6
37) COc1ccc(S(=O)(=O)N(C)C)cc1NC(=O)Cc1c[nH]c2ccccc12
  A: ?	B: -7	C: -7%	D: -7	E: 0.1	F: -15
38) CNCCOc1ccccc1C(C)(C)C
  A: 3%	B: -18	C: 10%	D: -3	E: -1.8	F: 6
39) CCCCc1nnc(NC(=O)CCS(=O)(=O)c2ccc(Cl)cc2)s1
  A: 3%	B: -2	C: 7%	D: 3	E: -4.1	F: 10
40) Cc1cccc(C(=O)Nc2ccc(O)cc2C(=O)O)c1
  A: 0%	B: 1	C: 3%	D: 4	E: 2.7	F: 3
41) CCN(CC)C(=O)NC1CCCCCCC1
  A: -5%	B: -2	C: 15%	D: 12	E: -2.2	F: 3
42) CC(C)Cc1nnc(NC(=O)CCC(=O)NCCc2ccc(Cl)cc2)s1
  A: 19%	B: -5	C: 6%	D: nt	E: -3.6	F: 6
43) CCC(Oc1ccccc1)C(=O)NC1CCSC1=O (centres undefined)
  A: 2%[15.4 µM]	B: 2	C: 11%	D: 0	E: -2.0	F: 3
44) NC(=O)C(=O)N/N=C/c1c(F)c(F)c(F)c(F)c1F
  A: ?	B: -5	C: 2%	D: 1	E: 6.5	F: 3
45) Cc1cc(C)n(C2CC(=O)N(c3cc(Cl)cc(Cl)c3)C2=O)n1 (centres undefined)
  A: 26%	B: 5	C: 4%	D: nt	E: 2.0	F: 0
46) CCCCn1nnnc1NCc1ccc(N(CC)CC)cc1
  A: 6%	B: -18	C: 4%	D: 0	E: -5.2	F: -2
47) Cc1nn(C)c(C)c1NC(=O)CSc1nc(C2CC2)nc2c1cnn2-c1ccccc1
  A: ?	B: -19	C: 1%	D: -1	E: -0.9	F: -2
48) CCOC1(/N=C(\C)NS(=O)(=O)c2ccc(Cl)cc2)C(C)=CC(=O)C=C1C
  A: 11%[15.4 µM]	B: 2	C: -44%	D: 21	E: -2.0	F: 19
49) NC(=O)C1CCCN(S(=O)(=O)c2ccc3ccccc3c2)C1 (centres undefined)
  A: ?	B: -10	C: 3%	D: 3	E: -4.1	F: 12
50) COc1ccc(OC)c(S(=O)(=O)Nc2ccc(OCC(=O)O)cc2)c1
  A: 14%	B: -5	C: 8%	D: 4	E: 0.8	F: 5
51) COc1ccc(S(=O)(=O)N2CCCCC2)cc1NC(=O)C1CC(=O)N(Cc2ccco2)C1 (centres undefined)
  A: 14%	B: -2	C: -3%	D: 7	E: -1.7	F: 3
52) Fc1ccccc1CSc1nc2ncccc2[nH]1
  A: 24%	B: 8	C: 1%	D: -1	E: 2.0	F: 5
53) Cc1ccc(-c2cc(C(=O)NCc3ccccn3)no2)cc1
  A: -17%	B: 0	C: 8%	D: 5	E: 1.6	F: 0
54) Cc1cc(N2C(=O)CC(Cc3ccc(Cl)cc3)C2=O)no1 (centres undefined)
  A: -46%[inhibitor]	B: -7	C: -8%	D: 6	E: -4.3	F: 3
55) Cn1c(=O)c2[nH]c(CCNC(=O)c3ccccc3)nc2n(C)c1=O
  A: -28%	B: 3	C: 7%	D: 0	E: -0.7	F: 3
56) CCCc1nnc(NC(=O)CCC(=O)N2CCN(c3ccccn3)CC2)s1
  A: -2%	B: 0	C: 6%	D: 37	E: -0.5	F: 26
57) CCCN1CCN(C(=O)c2ccc(F)c(S(=O)(=O)N3CCOCC3)c2)CC1
  A: -15%	B: -2	C: -12%	D: 1	E: 6.6	F: 5
58) Cc1cc(N2CCN(Cc3cn(C)nc3-c3ccccc3F)CC2)cc(C)n1
  A: 4%[15.4 µM]	B: -34	C: -9%	D: -11	E: -3.6	F: 14

An unsorted share of the library; 1.4% or so of the library scored in one or more.
